BJeLR lethal: MLPCN primary cell-based screen for lethality selective to Ras in HRASV12 cells | BJeLR (HRASV12) viability, CellTiter-Glo ATP luminescence, 48 h; reference of the scale not given here | inhibition, % (test concentration not listed) | 300,000 compounds, 0.17% hits | AID 1554, 2009;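 active means replicate mean above 50%; inconclusive means above 50% but judged a plate artefact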;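 further: 50 nL library stock added to about 25 µL; numbers are from one replicate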
Sa ugtP lethal: growth inhibition of ugtP-null S. aureus, primary screen, RN4220 ugtP deletion, OD600 | growth inhibition, % (no concentration beside the values) | 330,000 compounds, 0.54% hits | 16 h; some inactives read as strong as hits;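 active means z-score under -3 and OD600 up to 0.15 on both plates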;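 further: plate controls were untreated wells for no effect and antibiotic for full effect; wells of about 80 µL received 100 nL stock; the first replicate is given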
Mtb hypoxia rep: PubChem AID 1159583; M. tuberculosis hypoxia-regulated fluorescent reporter, fluorescence; 300,000 compounds, 0.1% hits; fluorescence inhibition, % (no concentration beside the values);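 active means 35 to 45% if threefold the growth effect, above 45% if 1.5-fold the growth effect; inactive means the rest, general growth blockers included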;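 further: wells of about 50 µL received 100 nL stock; 0% = vehicle wells and 100% = reference inhibitor wells; whole bacteria with a GFP reporter of the hypoxia response; strong numbers were not always called active; many hits fall short of the cut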
PrP UTR inh: inhibition of PrP 5' UTR reporter expression. cell-based PrP 5' UTR mRNA reporter, plate reader. inhibition, % (concentration not given with the values). 340,000 compounds, 0.35% hits. AID 488862, 2010;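 active means every replicate at 50% or more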;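 further: 0 = median of the neutral control wells; tested in H4 reporter cells; numbers are from one replicate; inactives centre near -14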
Sa RN4220 lethal: growth inhibition of S. aureus RN4220, primary screen, OD600; inhibition, % (concentration not given with the values); 16 h; AID 1259311, 2017; 330,000 compounds, 0.33% hits;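 active means z-score of -3 or lower and OD600 up to 0.18 on both plates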;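 further: plate controls were untreated cells for no effect and reference antibiotic for full effect; stock transfer was 100 nL into about 80 µL; one replicate is shown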
Autofluor counter: flagged as autofluorescent in microsphere protease counterscreen | compound autofluorescence counterscreen, microsphere flow cytometry; hits give high values | fluorescence intensity (concentration not given with the values) | 360,000 compounds, 3.1% hits;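 active means at least 3 SD above the mean of all compounds, about 16000 in these data; inconclusive means too few beads counted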;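 further: 100 nL of 1 mM stock went into each well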
Mtb hypoxia rep growth: second read-out of Mtb hypoxia rep, no call of its own (marks repeat the call); growth inhibition, %; measured here: M. tuberculosis growth (absorbance);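 0% = vehicle and 100% = reference antibiotic; read after six days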
Numbers without * were called inactive; ? = inconclusive; / = no result given.

SMILES | BJeLR lethal | Sa ugtP lethal | Mtb hypoxia rep | Mtb hypoxia rep growth | PrP UTR inh | Sa RN4220 lethal | Autofluor counter
COCCNC(=S)N/N=C(\C)c1cccc(C(F)(F)F)c1 | -3 | / | / | / | -25 | / | 3947
Cc1ccc(S(=O)(=O)N2Cc3ccccc3CC2C(=O)Nc2cc(C)on2)cc1 (stereo unspecified) | 3 | -2 | 4 | 0 | -21 | 1.6 | 10389
N#CC(c1ccccc1)C1CCN(Cc2ccccc2)CC1 (stereo unspecified) | 5 | 7 | 15 | 17 | -21 | 0.2 | 7532
COc1ccc(CCN(C)C(=O)COc2ccc(N(C)S(=O)(=O)c3ccc(C)cc3)cc2)cc1OC | 9 | -3 | -1 | -3 | -13 | -1.5 | 5396
Cc1ccc(C(=O)NCC(=O)N(C)Cc2ccc(Cl)cc2Cl)s1 | / | 3 | 7 | 5 | 9 | -1.8 | 5780
CCO[C@H]1OC(C(=O)NCc2nc3ccccc3[nH]2)=C[C@@H](c2ccc3c(c2)OCO3)[C@@H]1CCCO | -8 | 2 | 7 | 4 | -20 | -15 | 4073
O=C(c1ccccc1)C1OC1C(=O)c1ccccc1 (stereo unspecified) | / | 6 | 20 | 11 | -22 | 7.3 | 4220
CCn1c(=O)c(=O)[nH]c2cc(C(=O)NC3CCCC3)ccc21 | -2 | -7 | 3 | 13 | -41 | 3.2 | 2382
CCN(CC)c1ccc(S(=O)(=O)N2CCOCC2)cc1NC(=O)COC(=O)C1=COCCO1 | / | 2 | 1 | 11 | -5 | 1.8 | 5256
CCC(C)C1Nc2ccc(C(=O)NCCc3ccc(OC)c(OC)c3)cc2NC1=O (stereo unspecified) | -7 | -3 | 8 | -2 | -12 | 4.6 | 4008
CC(C)C(NC(=O)c1ccc2c(c1)OCO2)C(=O)NN=Cc1cccs1 (stereo unspecified) | / | 4 | 5 | 5 | / | 1.5 | /
O=C(c1cccc(OC2CCN(Cc3ccc(F)cc3Cl)CC2)c1)N1CCCC1 | 4 | 11 | 16 | 12 | -20 | -3.1 | 7072

Structures shown so far that contain an aryl methoxy group (2):
SMILES | BJeLR lethal | Sa ugtP lethal | Mtb hypoxia rep | Mtb hypoxia rep growth | PrP UTR inh | Sa RN4220 lethal | Autofluor counter
COc1ccc(CCN(C)C(=O)COc2ccc(N(C)S(=O)(=O)c3ccc(C)cc3)cc2)cc1OC | 9 | -3 | -1 | -3 | -13 | -1.5 | 5396
CCC(C)C1Nc2ccc(C(=O)NCCc3ccc(OC)c(OC)c3)cc2NC1=O (stereo unspecified) | -7 | -3 | 8 | -2 | -12 | 4.6 | 4008

Next records.
SMILES | BJeLR lethal | Sa ugtP lethal | Mtb hypoxia rep | Mtb hypoxia rep growth | PrP UTR inh | Sa RN4220 lethal | Autofluor counter
CCOC(=O)c1c(NC(=O)CNC2CCCc3ccccc32)sc(C(N)=O)c1C (stereo unspecified) | -7 | 10 | 12 | 7 | 2 | 5.6 | 4687
Cc1cc(NC(=O)Cn2cnc3c(nnn3-c3cccc(F)c3)c2=O)no1 | -2 | 3 | 3 | 6 | -27 | 1.5 | 3895
CC(C)NC(=O)NNC(=O)Cn1nnc(-c2cccc(Cl)c2Cl)n1 | -6 | 6 | 9 | -5 | -115 | 2.6 | 5608
O=C(NC1(C(F)(F)F)NC(=O)N(CC2CCCCC2)C1=O)c1ccco1 (stereo unspecified) | 0 | -3 | 8 | 4 | -18 | -0.6 | 13714
COc1ccc(-c2cn(-c3ccccc3)nc2CO)cc1 | -6 | -3 | -4 | 9 | -27 | 1.0 | 4000
COc1ccc(/C=C/C(=O)NC(=S)Nc2ccc(S(=O)(=O)Nc3nccnc3OC)cc2)cc1 | -2 | -19 | 8 | 7 | -11 | -2.7 | 7240
Cc1cccc(C(=O)NNC(=O)c2cc3cc4ccccc4nc3s2)c1 | 0 | -7 | / | / | -14 | 4.0 | 3660
C=CCOc1cccc(/C=C\c2nc(O)c([N+](=O)[O-])c(=O)[nH]2)c1 | 0 | -1 | 0 | 5 | -18 | 0.8 | 3867
COC(=O)C(NNc1ccccc1C)(NC(=O)c1ccc(F)cc1)C(F)(F)F (stereo unspecified) | 3 | 6 | 1 | 4 | -5 | 8.2 | 3107
NC(=O)c1cc(N=Nc2c(N)[nH]n(-c3c(Cl)cc(Cl)cc3Cl)c2=O)ccc1Cl | -3 | -3 | 10 | 4 | -14 | 2.1 | 4496
Cc1ccc(-c2nc3ccccc3nc2NN)cc1 | -7 | / | / | / | -41 | / | 3031
Brc1ccccc1OCCCCCN1CCOCC1 | -5 | -12 | 6 | 11 | -19 | -1.4 | 4652

At a glance, part of the list above:
SMILES | BJeLR lethal | Sa ugtP lethal | Mtb hypoxia rep | Mtb hypoxia rep growth | PrP UTR inh | Sa RN4220 lethal | Autofluor counter
CCOC(=O)c1c(NC(=O)CNC2CCCc3ccccc32)sc(C(N)=O)c1C (stereo unspecified) | -7 | 10 | 12 | 7 | 2 | 5.6 | 4687
Cc1cc(NC(=O)Cn2cnc3c(nnn3-c3cccc(F)c3)c2=O)no1 | -2 | 3 | 3 | 6 | -27 | 1.5 | 3895
CC(C)NC(=O)NNC(=O)Cn1nnc(-c2cccc(Cl)c2Cl)n1 | -6 | 6 | 9 | -5 | -115 | 2.6 | 5608

The list continues.
SMILES | BJeLR lethal | Sa ugtP lethal | Mtb hypoxia rep | Mtb hypoxia rep growth | PrP UTR inh | Sa RN4220 lethal | Autofluor counter
O=C(COC(=O)CCCN1C(=O)c2ccccc2C1=O)Nc1ncc(Cl)cc1Cl | 2 | 4 | / | / | -18 | 3.6 | 4362
CCOC(=O)C1=C(C)NC2=C(C(=O)C(C(=O)OCC)C(c3ccco3)C2)C1c1ccccn1 (stereo unspecified) | -3 | 7 | 9 | 1 | -15 | 6.2 | 15333
CC(=O)Nc1cccc(Oc2cnc3ccccc3n2)c1 | -11 | -1 | 6 | 1 | -26 | 0.8 | 18766*
O=C(NN=Cc1ccccn1)c1cc(-c2ccc(Br)cc2)nc2ccccc12 | / | 10 | 14 | -12 | / | 4.0 | /
CCOC(=O)c1c(NC(=O)COC(=O)CNC(=O)c2ccco2)sc(C(C)=O)c1C | -9 | -3 | -1 | -1 | -23 | 0.9 | 1734
COc1ccc(S(=O)(=O)N2CCN(Cc3cccc([N+](=O)[O-])c3)CC2)cc1 | 6 | 0 | 1 | 1 | -10 | 2.1 | 3645
CN1C(=O)CC(N2CCN(c3ccccn3)CC2)C1=O (stereo unspecified) | 1 | -6 | 6 | 1 | -30 | 4.0 | 20682*
O=C(Nc1ccc(Br)cc1)C1C2C=CC3(O2)C1C(=O)N(CCN1CCCCC1)C3C(=O)NC1CCCCC1 (stereo unspecified) | 1 | -6 | -2 | -5 | -30 | 5.2 | 4124
Fc1ccccc1/C=N/N1CCN(Cc2ccccc2Cl)CC1 | -5 | / | / | / | 9 | / | 3881
Cn1ccnc1SCC(=O)c1ccc(Br)cc1 | -2 | 2 | -2 | -4 | -13 | -0.1 | 11332
COc1ccccc1NC(=O)CSc1nc2c(sc3ccccc32)c(=O)n1CCN(C)C | -1 | -3 | 2 | 3 | -12 | 3.6 | 3656
COc1ccc2c(c1)sc(=N)n2C | 7 | 8 | 10 | 13 | -11 | 7.5 | 4647
CCOc1ncccc1C(=O)OCC(=O)Nc1cc(S(=O)(=O)N2CCCCC2)ccc1Cl | / | 10 | 3 | 3 | 0 | 6.3 | 4287
CN1CCN(CCCN(Cc2cccs2)C(=S)Nc2ccc(Cl)cc2)CC1 | -2 | 1 | 15 | 5 | -23 | -0.9 | 4383
COc1ccc(-c2nc(-c3cccc(C)c3)nc(N3CCN(C)CC3)c2C#N)cc1 | 34 | -2 | / | / | -34 | 0.7 | 2102
COC(=O)C1=C(c2cc3ccccc3s2)CC2CCC1N2C(=O)N1CCC(O)CC1 (stereo unspecified) | / | 4 | 6 | 8 | / | 8.6 | /
COCCn1c(=NC(=O)c2ccc(S(=O)(=O)N3CCOCC3)cc2)sc2cc(S(N)(=O)=O)ccc21 | 0 | 0 | 6 | 1 | -19 | 5.8 | 5776
COc1ccccc1OCC(=O)NNC(=O)c1cnccn1 | 2 | 4 | -8 | 8 | -15 | 11 | 3365
Cc1onc(-c2ccccc2)c1C(=O)OCc1nnc(-c2ccccc2)o1 | 4 | 4 | 9 | 5 | -16 | 8.2 | /
NC(=O)c1ccc(NC(=O)c2cncn2-c2ccccc2)cc1 | 2 | 8 | 10 | -2 | -6 | 6.0 | 5580
O=C(CON=Cc1ccc(OC(F)F)cc1)NC1CCCC1 | / | -6 | 11 | 8 | / | 4.7 | /
CC[C@]12c3[nH]c4ccc(OC)cc4c3CCN1C(=O)C(CC(=O)NCc1cccc(C(F)(F)F)c1)C[C@@H]2C(=O)N1CCN(C(=O)c2ccco2)CC1 (stereo partly specified) | / | -1 | -1 | 2 | -12 | -0.1 | 3715
CCCNC(=O)COC(=O)/C=C/c1ccco1 | 1 | 8 | 5 | 2 | -18 | -0.4 | 2061
C/C(=N\N1CCN(C)CC1)c1ccc(Cl)c(Cl)c1 | -4 | / | / | / | -17 | / | 4244
Cc1nc(CNS(=O)(=O)c2ccc3c(c2)OCCO3)cs1 | 11 | 3 | -3 | 2 | -2 | 1.4 | 9164
COc1ccc(CCN(C)C2CCCN(S(=O)(=O)c3ccccc3)C2)cc1OC (stereo unspecified) | -4 | 6 | -4 | 8 | -21 | 1.3 | 3905
Cc1ccc(S(=O)(=O)Oc2ccc(N3C(=O)C4C5CCC(C5)C4C3=O)cc2)cc1 (stereo unspecified) | 9 | 6 | 5 | 1 | -25 | 8.0 | 4945
COc1ccc(Cl)cc1NC(=O)Cn1c(=O)n2nc(C)nc2c2ccccc21 | -5 | -5 | / | / | 9 | -4.5 | 4483
Cn1c(=O)oc2cc(S(=O)(=O)NCCN3CCN(c4ccccc4F)CC3)ccc21 | 2 | 0 | 3 | 7 | -17 | -7.5 | 6046
CCC(C)n1c(SCC(=O)Nc2ccccc2C(F)(F)F)nc2ccsc2c1=O (stereo unspecified) | 7 | -3 | -5 | -4 | -7 | -0.4 | 21867*
O=C(CSc1ncnc2nc[nH]c12)Nc1nnc(SCc2ccc(Cl)c(Cl)c2)s1 | -7 | -14 | 4 | 2 | 4 | 10.0 | 2205
Cc1nn(CCC(=O)N2CCN(S(=O)(=O)c3ccc(Cl)cc3)CC2)c(C)c1C | -2 | -4 | 12 | -1 | -16 | 3.4 | 4076
CNC(=O)CCCN1C(=O)c2ccccc2Sc2ncccc21 | 2 | 7 | 6 | 6 | -39 | 3.4 | 3787
COc1ccc(C(=O)Nc2cc(C)c3c(=O)oc4ccccc4c3n2)cc1 | -8 | -2 | -3 | 7 | 12 | -3.5 | 5786
COc1cc(C2CC(=O)N3CN(Cc4ccccc4)CSC3=C2C#N)ccc1OCc1ccccc1 (stereo unspecified) | 0 | 12 | 7 | 4 | 0 | -9.4 | 4360
CCN1CCN(CCCNC(=O)c2ccc3c(Cl)c4c(nc3c2)CCCC4)CC1 | 3 | 6 | 10 | -3 | 3 | 2.1 | 5391
COc1ccc(C(=O)Nc2nc3ccc(S(C)(=O)=O)cc3s2)cc1OC | 4 | 2 | 7 | -3 | -24 | 6.7 | 2289
Cc1cccc(CN2CCC(CNC(=O)Nc3ccc(F)c(Cl)c3)CC2)c1 | 4 | -18 | 13 | 0 | -2 | -7.3 | 3637
O=C(N/N=C/c1cn(-c2ccccc2)nc1-c1ccc(F)cc1)c1ccc(Br)o1 | 5 | / | / | / | -22 | / | ?
CCC(C(=O)OCC(=O)C1(O)CCC2C3CCC4=CC(=O)CCC4(C)C3C(O)CC21C)C(C)C (stereo unspecified) | / | 5 | 5 | 8 | -24 | 8.1 | 3660
COc1ccc(OCCCC(=O)Nc2ccc(N3CCCCC3)cc2)cc1 | 11 | 5 | 0 | 2 | -1 | 9.1 | 8066
O=C(COC(=O)/C=C/c1ccccc1Cl)NC1CCCCCC1 | -3 | -4 | -5 | 15 | 0 | 4.2 | 2537
CCCc1nnc(SCC(=O)NC2CCCCC2)n1CCOC | -1 | -1 | 5 | -2 | -17 | -1.2 | 5772
O=C(Nc1cc(F)cc(F)c1)c1sc(Cl)nc1-c1ccccc1 | 11 | 9 | 15 | 3 | -7 | 5.5 | 2623
COc1ccc2oc(=O)c(C(=O)Nc3ccccc3C)cc2c1 | -5 | 0 | -8 | -11 | -80 | 7.2 | 3907

As entered above:
COc1ccc(C(=O)Nc2nc3ccc(S(C)(=O)=O)cc3s2)cc1OC – Autofluor counter: 2289
COc1ccc(OCCCC(=O)Nc2ccc(N3CCCCC3)cc2)cc1 – Mtb hypoxia rep growth: 2

Assay outcomes deposited in PubChem by several laboratories.
